High-throughput results: PubChem, National Center for Advancing Translational Sciences (NCATS)
gsp antag: qHTS for Antagonists of gsp, the Etiologic Mutation Responsible for Fibrous Dysplasia/McCune-Albright Syndrome: qHTS; gsp-mutant cells, cAMP HTRF, 30 min; control for the full effect not named in the record; Potency, µM (top dose mostly 76.9 µM), without a hit: at the top dose activity change, negative = inhibition, usual class: inhibitors; 0.4% of 340,000 active; active = falling curve of any shape with a large fitted effect; inconclusive = falling curve, mostly with a smaller effect; inactive = flat or rising curve; cell line not stated here;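 also: intracellular cAMP measured with PDE inhibitor Ro 20-1724 present during compound exposure; potency is read from the fitted curve at half-maximal effect; % is scaled to controls: 0 for no effect and ±100 for the full control effect; nearly all actives have a fitted effect of over 65% in size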
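Cells in G418 medium, seeded 16-24 h, 37C; buffer exchange to DPBS + 1 mM CaCl2, 0.5 mM MgCl2, 0.05% BSA; cpds in DMSO + […] (300 uM stock), 30 min 37C; HTRF cAMP detection.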
Menin MLL FP FL: qHTS Assay for Inhibitors Targeting the Menin-MLL Interaction in MLL Related Leukemias: Competition With Fluorescein Labeled MLL-derived Peptide | FP activity change, % at 61.4 µM | Fluorescence polarization, fluorescein-MLL peptide displacement from menin | 290,000 tested, under 10 active; inconclusive = falling polarisation curve, or a change in total fluorescence; inactive = total fluorescence flat and polarisation flat or rising; no compound was filed as active; the % refers to the polarisation; negative = inhibition;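 also: % of control where 0% means no effect; inhibitors lower the polarisation; unlabelled MLL peptide was the positive control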
gsp ag: qHTS for Agonist of gsp, the Etiologic Mutation Responsible for Fibrous Dysplasia/McCune-Albright Syndrome: qHTS. AID 624287, 2012. gsp mutant cells, cAMP HTRF, 30 min; control for the full effect not named in the record. 0.13% of 340,000 active. Potency, µM (highest dose often 76.9 µM), for the others: at the highest dose activation (cAMP increase), actives largely listed as activators; active = well fitted activation curve with a large enough effect; inconclusive = small, poorly fitted or top-dose-only effect, or another doubt; inactive = no such curve, though single readings can be large or run the other way; cell line not stated here;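 also: phosphodiesterase inhibitor Ro 20-1724 added with compounds to block cAMP breakdown; potency is read from the fitted curve at half-maximal effect; nearly all actives have a fitted effect of over 60% in size; about a fifth of the inactives were tested at one dose only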
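Cells stably selected in G418 were plated at 2000/well, grown 16-24 hr, then given compounds in DMSO with the PDE inhibitor […] (300 uM solution added) for 30 min at 37C; cAMP was read by HTRF.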
ClpP mod: qHTS Assay for Activators of ClpP | purified B. subtilis ClpP, FRET peptide cleavage, 20 min | Potency, µM (titrated, usually from 57.5 µM), for inactives: at the highest dose activity change, negative = active | 1.9% of 340,000 active | AID 651965, 2013; active = well fitted falling curve with a large enough effect; inconclusive = small, poorly fitted or top-dose-only effect; inactive = no such curve, though single readings can be large or run the other way; also: potency is read from the fitted curve at half-maximal effect; the source files actives as falling curves though it sought activators and does not explain the sign; nearly all actives have a fitted effect of over 65% in size; many hits overshoot -100%
Target sequence (P80244 whole entry, looked up): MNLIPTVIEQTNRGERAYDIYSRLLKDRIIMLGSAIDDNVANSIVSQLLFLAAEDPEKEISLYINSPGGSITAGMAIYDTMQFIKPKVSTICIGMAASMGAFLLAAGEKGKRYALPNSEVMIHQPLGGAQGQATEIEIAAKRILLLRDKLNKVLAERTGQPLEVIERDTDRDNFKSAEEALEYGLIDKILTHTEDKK
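Buffer: 100 mM Tris/HCl pH8, 100 mM KCl, 0.05% low protease BSA, 2.5% glycerol, 0.01% Tween-20. ClpP 10 microg/mL final; 20 min RT; delta FRET normalized to ADEP and DMSO controls.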
TRPML1 blocker: qHTS for Inhibitors of the Human Mucolipin Transient Receptor Potential 1 (TRPML1) | TRPML1-inducible cells, Ca2+ dye fluorescence, FDSS; hits give low values; inhibition of EC80 agonist-evoked calcium signal | Mucolipin-1 (Homo sapiens), Q9GZU1 | activity change, negative = inhibition, % (no concentration beside the values) | 0.02% of 390,000 active; in the data active means activity change below about -50%; inconclusive means about -30% to -50%; inactive means above about -30%;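 also: stimulus is agonist 54-4 at its EC80 concentration; % is scaled to controls: 0 for no effect and ±100 for the full control effect; compound concentration not given in the record; the text of the record puts the active cut at -80%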
Target sequence (Q9GZU1 whole entry, looked up): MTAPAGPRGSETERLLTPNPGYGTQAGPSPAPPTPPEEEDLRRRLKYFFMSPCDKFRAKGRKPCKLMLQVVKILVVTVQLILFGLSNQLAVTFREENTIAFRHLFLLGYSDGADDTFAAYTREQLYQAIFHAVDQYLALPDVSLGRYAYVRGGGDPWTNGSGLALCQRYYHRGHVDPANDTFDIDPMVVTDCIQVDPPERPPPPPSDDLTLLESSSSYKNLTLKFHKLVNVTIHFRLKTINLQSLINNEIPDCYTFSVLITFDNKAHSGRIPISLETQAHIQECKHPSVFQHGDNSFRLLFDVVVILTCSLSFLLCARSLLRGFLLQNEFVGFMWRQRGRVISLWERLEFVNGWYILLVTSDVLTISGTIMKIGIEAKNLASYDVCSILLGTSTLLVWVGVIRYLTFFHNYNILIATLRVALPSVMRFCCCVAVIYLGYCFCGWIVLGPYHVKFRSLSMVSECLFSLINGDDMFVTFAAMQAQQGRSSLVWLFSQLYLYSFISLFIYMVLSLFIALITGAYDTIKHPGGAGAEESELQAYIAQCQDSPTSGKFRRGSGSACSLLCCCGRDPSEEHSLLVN
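Calcium fluorescence in TRPML1-DL cells induced overnight with Tet: a 110 s read after compound pin addition, then a 110 s antagonist read after challenge with 54-4 at 4 uM final (EC80).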
TRPML1 agonist: qHTS for Agonists of the Human Mucolipin Transient Receptor Potential 1 (TRPML1) | 0.12% of 410,000 active | activation, % (test concentration not listed) | AID 624414, 2012 | TRPML1-expressing cells, Ca2+ dye fluorescence, FDSS; host cell line not named in the record; reference of the full effect not given here | Mucolipin-1 (Homo sapiens), Q9GZU1; in the data active = activation above about 50%; inconclusive = about 30% to 50%; inactive = below about 30%; also: 0% is about no effect; the text of the record puts the active cut at 80%
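Kinetic FDSS Ca2+ read in Tet-induced TRPML1-DL cells (ABD Ca8 dye plus quencher, 45-90 min RT loading): baseline, then compound, then 110 s agonist window; EC80 agonist 54-4 at 4uM final added afterwards for a 110 s antagonist window.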
An asterisk follows results filed as active; ? = inconclusive; . = not tested or not shown; [ ] = remark or other dose. Rows are unselected; 2.1% or so of the library scored in one or more.

structure,gsp antag,Menin MLL FP FL,gsp ag,ClpP mod,TRPML1 blocker,TRPML1 agonist
O=C(CNC(=O)c1ccccc1)N/N=C/C=C/c1ccccc1,-12%,-0.5,29%,0.9%,5,0.2
OCC1(CCc2ccccc2)CCN(Cc2ccccc2Cl)CC1,19%,-0.4,-9%[15.4 µM],.,-17,-0.8
CN1CCSc2ccc(C(=O)NCc3cccc(Br)c3)cc21,-20%,2.7,21%,4.2%,5,1.4
O=C(/C=C/c1ccco1)NC(=S)Nc1cccc([N+](=O)[O-])c1,1%,-18,-6%[15.4 µM],-2.1%,13,-0.3
CCCN1CCC(=O)N([C@H](CSc2ccc(C)cc2)c2ccccc2)CC1,-9%,-4.8,.,-12%,5,-0.1
CCOc1ccc2nc(NC(=O)c3cccnc3)sc2c1,11%,6.5,1%,-1.9%,-11,0.7
CCOC(=O)C(CC)Sc1ncnc2sc3c(c12)CCCC3 (centres undefined),.,.,.,-1.2%,5,3.3
Nn1c(Cc2cccc3ccccc23)nnc1SCn1nnc2ccccc2c1=O,-11%,9.9,?,4.2%,-9,0.4
COc1ccc(S(=O)(=O)N(C)CC(=O)NC2CC2)cc1,-3%,8.1,-29%,0.6%,-7,-0.5
COc1cc(C(=O)Nc2nnc(CC(C)(C)C)s2)cc(OC)c1OC,.,.,.,-18%,8,-0.5
NC(=O)c1cccc(-c2coc3c(C(=O)NCCc4ccccc4)cccc23)c1,.,.,.,-14%,-14,0.3
COc1ccc(NC(=O)C(Cc2ccccc2)n2cccc2)cc1 (centres undefined),1%,3.0,-9%[15.4 µM],.,-2,2.1
CCOc1ccccc1NC(=O)C1CCN(S(=O)(=O)c2c(C)noc2C)CC1,3%,3.4,-28%,0.0%,13,-0.7
COc1ccc(CN2C(=O)CC(Cc3ccc(C)cc3)C2=O)cc1OC (centres undefined),2%,3.5,?,-1.4%,21,3.5
CN(C(=O)CN1C(=O)S/C(=C\c2ccccc2)C1=O)C1CCS(=O)(=O)C1 (centres undefined),6%,.,-14%,-0.3%,-12,0.0
Cc1ccc2c(c1)N(CC(=O)N1CCOCC1)C(=O)C(C)O2 (centres undefined),-7%,-1.9,12%,.,12,1.0
NNC(=S)Nc1cc(S(=O)(=O)N2CCOCC2)ccc1N1CCOCC1,-2%,1.3,-29%[15.4 µM],.,11,0.2
COc1cc(NC(=O)CN2C(=O)NC(CC(C)C)C2=O)cc(OC)c1OC (centres undefined),10%,.,10%,-0.1%,26,1.4
Cc1ccc(-c2nc(NC(=O)CSc3nnnn3-c3ccccc3)ns2)cc1,2%,-2.3,?,78%,28,0.8
CCC(C)NC(=O)c1ccc2nc(CCc3ccccc3)oc2c1 (centres undefined),.,.,.,-1.7%,12,1.4
COc1ccc(OC)c(Nc2sc(C(=O)c3ccccc3)c(N)c2S(=O)(=O)c2ccccc2)c1,.,.,.,-18%,-23,2.9
COc1cc(/C=N/N=C(N)N)ccc1OCc1ccccc1Cl,4%,-5.8,?,0.1%,-1,0.4
CCOC(=O)CNC(=O)c1ccccc1,3%,2.9,0%,-2.7%,-5,0.0
Cc1ccnc(NC(=O)c2cccc(NS(=O)(=O)c3ccccc3C)c2)c1,-4%,4.1,-5%,2.6%,14,0.3
CC1=C(C(=O)Nc2cccnc2)C(c2cccnc2)n2ncnc2N1 (centres undefined),12%,5.4,-39%[inhibitor],-1.5%,18,0.3
O=C(c1ccccc1)N1CCc2cc(CNS(=O)(=O)c3ccc(Cl)s3)ccc21,.,.,.,0.1%,22,1.8
O=C(Cn1cc(/C=N/NC(=O)c2cccc3ccccc23)c2ccccc21)Nc1ccc(F)cc1,?,5.5,-20%,?,-12,0.1
COC(=O)C1=C(N)N(c2ccccc2F)C2=C(C(=O)CC(C)(C)C2)C1c1ccc(OC)c(OC)c1 (centres undefined),-7%,.,14%,-2.4%,39,0.0
CC(=O)Nc1ccc(Nc2cc(C)nc3c(-c4ccc(Cl)cc4)cnn23)cc1,-8%,-0.9,-4%,?,-13,-0.4
Cc1ccc(NC(=O)CCc2ccc(S(=O)(=O)N3CCOCC3)cc2)c(Cl)c1,-2%,.,-24%,-1.8%,-11,2.6
COc1cc(C=O)ccc1Oc1nnnn1-c1ccccc1,-18%,0.2,14%,.,-3,0.2
Cc1ccc(-n2ncc3c(NCCCN(C)C)ncnc32)cc1Cl,.,.,.,4.2%,12,-0.2
Cc1oc(-c2ccc(Cl)cc2)nc1CS(=O)CC(=O)N1CCN(c2cccc(C(F)(F)F)c2)CC1 (centres undefined),.,.,.,-0.9%,-12,1.3
Cc1cc[n+](-c2nc3ccccc3nc2[N-]S(=O)(=O)c2ccccc2)cc1,-12%,?,6%,-2.0%,-7,-0.6
CC(=O)c1ccc(-c2nnc(CCC(=O)N3CCCC(C(=O)CC(C)C)C3)o2)s1 (centres undefined),-6%,-2.8,20%,1.5%,15,-1.0
CCOC(=O)CNC(=S)N(CCCN1CCN(C)CC1)Cc1cccs1,7%,-4.6,6%,-2.6%,3,1.0
Cc1cc(C)cc(OCC(=O)Nc2ccc(N3CCN(C(=O)c4ccco4)CC3)cc2)c1,-19%,-2.0,-25%,-0.3%,-7,2.2
COc1ccc(CN(C(=O)c2oc3cc(C)c(C)cc3c2C)C2CCS(=O)(=O)C2)cc1OC (centres undefined),-24%,.,29%,-2.7%,4,2.1
N#Cc1cccc(N=c2ssnc2Cl)c1,-14%,-0.6,7%[15.4 µM],.,6,-0.5
CCCn1c(Nc2nc3ccccc3n2C)nc2ccccc21,-10%,-0.7,-15%,-29%,-6,2.8
N#Cc1cc2c(=O)n3ccccc3nc2n(-c2ccccc2Cl)c1=O,-23%,-4.2,?,3.9%,-9,-0.1
Cc1ccc(N(C)C(=O)CN2C(=O)CCc3cc(S(=O)(=O)N4CCOCC4)ccc32)cc1,.,.,.,-1.2%,4,-0.1
Cc1ccc(-c2nc(CN(C)Cc3ccc4nccnc4c3)c(C)o2)s1,7%,2.5,4%,-6.5%,-14,-0.4
Cc1ccc(S(=O)(=O)Nc2ccc(C(=O)NCc3cccnc3)cc2)cc1,12%,.,10%[15.4 µM],-6.0%,16,-0.2
COc1ccc(CNCc2cccc(Oc3ccccc3)c2)cc1,1%,-3.2,8%[15.4 µM],.,17,1.0
COc1ccccc1OC(=O)Cc1cccc2ccccc12,5%,4.8,-67%[inhibitor],.,12,0.5
N#CC1=C(SCC(=O)Nc2ccccc2)NC(=O)CC1c1ccc(O)cc1 (centres undefined),1%,-0.8,25%,-1.2%,1,0.9
COc1cc(CNC2CCCCC2OC)cc(OC)c1OC (centres undefined),-14%,5.1,24%[15.4 µM],.,14,0.1
COc1ccc(CNC(=O)c2cc(-c3ccncc3)nc3c(C)cc(C)cc23)cc1OC,-22%,1.8,-3%[15.4 µM],-4.5%,3,2.2
Cc1ccc([N+](=O)[O-])cc1NC(=S)NC(=O)C(C)(C)C,-13%,1.3,-1%,-0.3%,4,0.2
CC(Sc1n[nH]c(N)n1)C(=O)Nc1ccc(Cl)cn1 (centres undefined),4%,0.1,-3%,-2.2%,-24,0.3
Cc1cc(S(=O)(=O)Nc2ccc(C(=O)NCC(c3ccccc3)N(C)C)cc2)ccc1F (centres undefined),6%,.,-9%,-2.2%,4,1.5
Cn1c(SCC(=O)c2ccccc2)nnc1-c1ccccn1,7%,1.4,16%,.,10,9.6
Cc1noc(NS(=O)(=O)c2ccc(NC(=O)CC34CC5CC(CC(Br)(C5)C3)C4)cc2)c1C,-19%,3.3,21%,-3.1%,-9,0.5
CC(C(=O)Nc1c2c(cc3c1CCC3)CCC2)N1CCCC1 (centres undefined),22%,4.4,?,2.7%,-2,1.2
Cc1ccc(-c2nn3cnnc3c3ccccc23)cc1,-3%,-5.0,?,.,43,0.8
Cc1ccc(S(=O)(=O)NN=CC=CC=NNS(=O)(=O)c2ccc(C)cc2)cc1,.,.,-8%,-0.3%,2,-0.6
Cc1ccc(-c2nc3sc4c(N)ncnc4c3c3c2CCCC3)cc1,7%,0.6,-2%,-0.7%,-2,1.2
Cc1cccc(NC(=O)CN(C2=NC3CS(=O)(=O)CC3S2)c2ccccc2F)c1 (centres undefined),-4%,-0.8,3%,-0.8%,4,0.6
O=C(CN1CCN(Cc2ccccc2)CC1)Nc1cccc(C(F)(F)F)c1,14%,-0.3,-10%,-2.4%,7,-0.4

Shown with values under each structure: 2 of the compounds above.
Sequence of screens – gsp antag	Menin MLL FP FL	gsp ag	ClpP mod	TRPML1 blocker	TRPML1 agonist
- Cc1ccc([N+](=O)[O-])cc1NC(=S)NC(=O)C(C)(C)C
    -13%	1.3	-1%	-0.3%	4	0.2
- CC(Sc1n[nH]c(N)n1)C(=O)Nc1ccc(Cl)cn1 (centres undefined)
    4%	0.1	-3%	-2.2%	-24	0.3

The results go on.
structure,gsp antag,Menin MLL FP FL,gsp ag,ClpP mod,TRPML1 blocker,TRPML1 agonist
Cc1ccc(CNC(=O)Cn2cc3c(n2)-c2c(oc(C(=O)N4CCOCC4)c2C)CC3)cc1,.,.,.,-4.4%,-16,0.5
COC(=O)C1CN(Cc2ccccc2)C(=O)C1=O (centres undefined),-3%,.,11%,.,19,0.7
O=C1CN(CC(=O)NC2CCCc3ccccc32)CCN1 (centres undefined),11%,4.7,-3%,-2.0%,.,.
Cn1c(CS/C(N)=N/N=C/c2ccccc2)c(Br)c(=O)n1-c1ccccc1,1%,-0.3,-8%[15.4 µM],1.0%,-8,0.1
CC(C)N1CCN(Cc2ccsc2)CC1CCO (centres undefined),10%,0.2,-17%[15.4 µM],.,2,-0.2
CCOc1ccc(-n2cnnn2)cc1S(=O)(=O)N1CCC(C)CC1C (centres undefined),-5%,1.0,3%,.,8,2.1
COc1ccc(C(=O)Nc2ccc(NC(=O)Cc3ccccc3)cn2)cc1,8%,-1.2,-2%[15.4 µM],.,14,-0.6
CCN1C(=O)/C(=C\N(C)C)NC1=S,-13%,.,-12%,.,3,-0.2
CCn1cc([N+](=O)[O-])c(C(=O)N2CCN(C(=O)c3ccco3)CC2)n1,29%,2.1,10%,-3.1%,-14,0.9
